Screening data (PubChem BioAssay)
KCNQ2 enhance – enhances the rat KCNQ2 potassium channel | O88943 | CHO-K1 KCNQ2, FluxOR thallium flux fluorescence; stronger effect = higher value | B-score at 10 µM | 0.54% of 310,000 active | AID 2239;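 active = fluorescence ratio B-score at least 3 SD of library B-scores, with initial fluorescence B-score within 3 SD, cut at about 5.3 in these data; same plate scores as AID 2156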;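 also: B-score of peak minus minimum over baseline fluorescence ratio after K+ and Tl+ stimulus; positive B-score means potentiation of KCNQ2 with more thallium influx and brighter signal; only the inactives scoring about 0 or higher are listed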
Target sequence (O88943 whole entry, looked up): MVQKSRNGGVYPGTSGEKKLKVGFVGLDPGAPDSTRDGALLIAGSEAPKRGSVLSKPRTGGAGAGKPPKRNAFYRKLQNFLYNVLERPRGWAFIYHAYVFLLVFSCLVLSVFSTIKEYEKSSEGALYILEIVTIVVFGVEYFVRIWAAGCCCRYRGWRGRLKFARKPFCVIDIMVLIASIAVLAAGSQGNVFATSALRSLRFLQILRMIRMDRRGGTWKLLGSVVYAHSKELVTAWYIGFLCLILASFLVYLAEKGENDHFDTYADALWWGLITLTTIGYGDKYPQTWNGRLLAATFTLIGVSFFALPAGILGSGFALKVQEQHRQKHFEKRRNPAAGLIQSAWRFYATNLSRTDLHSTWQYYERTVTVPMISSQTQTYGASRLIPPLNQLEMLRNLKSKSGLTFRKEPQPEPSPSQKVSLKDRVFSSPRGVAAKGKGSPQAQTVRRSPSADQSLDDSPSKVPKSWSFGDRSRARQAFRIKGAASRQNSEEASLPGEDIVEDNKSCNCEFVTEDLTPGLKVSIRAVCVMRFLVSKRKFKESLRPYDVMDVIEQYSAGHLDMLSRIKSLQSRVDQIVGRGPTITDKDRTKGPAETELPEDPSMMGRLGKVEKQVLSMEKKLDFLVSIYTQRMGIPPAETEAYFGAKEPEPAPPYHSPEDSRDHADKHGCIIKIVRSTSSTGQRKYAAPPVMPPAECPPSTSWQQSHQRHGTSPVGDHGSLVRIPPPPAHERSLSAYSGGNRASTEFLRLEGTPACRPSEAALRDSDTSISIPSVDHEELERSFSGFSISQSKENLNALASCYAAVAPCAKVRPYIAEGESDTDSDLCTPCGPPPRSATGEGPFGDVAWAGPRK
KCNQ2 enhance baseline – recorded beside KCNQ2 enhance, whose call it bears; B-score; compound at 10 µM; measured here: initial fluorescence intensity artifact check;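 brightness before thallium and not channel activity; 0 = typical well and far values either way flag optical interference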
* hit, by the source's call; . = no result given. Only part of the results is shown; the hit share may differ from the screen's.

SMILES	KCNQ2 enhance	KCNQ2 enhance baseline
CC(=O)c1ccc(N2CCN(C(=O)CCc3ccccc3)CC2)cc1	0.37	-0.75
C/C(=N\NC(=O)c1cccc(O)c1)c1ccc(NC(=O)Cc2ccccc2)cc1	1.9	-0.05
CCn1cc(C(=O)NCc2ccccc2OC)c(=O)c2cc(S(=O)(=O)N(C)C)ccc21	1	0.22
O=C(NC(=S)Nc1ccc(N2CCCCC2)c(Cl)c1)c1ccc2c(c1)OCCO2	0.83	-0.1
CSc1nncc(-c2ccc(F)cc2)n1	0.99	-1.1
S=c1nc(COc2ccccc2)[nH]c2ccccc12	20*	0.13*
COCc1nnc(NC(=O)c2ccc(S(=O)(=O)N(C)C3CCCCC3)cc2)o1	0.69	-0.81
O=C(CNC(=O)c1ccncc1)N/N=C/c1cc(Br)ccc1OCc1ccccc1	0.02	-0.59
Cc1cccc(NC(=O)CSCC(=O)N(CCC(C)C)c2c(N)n(Cc3ccccc3)c(=O)[nH]c2=O)c1	0.24	0
CCCn1c(C(C)Nc2nc(-c3ccc(Cl)c([N+](=O)[O-])c3)cs2)nc2cc(Cl)c(N3CCCCC3)cc21 (stereo not given)	0.49	-1.3
C=CCNC(=O)C1CC(=O)N(c2ccc(C)cc2)C1 (stereo not given)	0.46	0.15
Nc1c(-c2ccccn2)cnn1-c1nc(-c2ccc(F)cc2)cs1	0.07	0.01
CC(C)(C)c1ccc(C(=O)Nc2cccc(C(=O)N3CCOCC3)c2)cc1	1	0.78
Nc1cc(=O)nc(SCC(=O)Nc2ccccc2)n1-c1ccccc1	0.01	0.18
CCOC(=O)C1=C(COC(=O)CNC(=O)c2ccc(C(C)(C)C)cc2)NC(=O)NC1C (stereo not given)	2.6	-1.1
COc1ccccc1N1CCN(c2ccc3cc(S(=O)(=O)N4CCCCC4)ccc3n2)CC1	-5.6	.
COc1ccc(CCNc2cc(N3CCN(C(=O)c4ccccc4F)CC3)ccc2[N+](=O)[O-])cc1OC	0.46	1.4
CN1CCN(S(=O)(=O)c2ccc(Cl)c3ccccc23)CC1	0.35	0.19
CCOC(=O)CCc1c(C)c(C#N)c2[nH]c3ccccc3n2c1=O	0.1	-1.4
CC(NS(=O)(=O)c1ccccc1)C1CC2CCC1C2 (stereo not given)	3.1	0.07
CCOc1ccccc1C1N(c2ccc(F)cc2)C(=O)C2CCCN21 (stereo not given)	1.4	-2
CN(C(=O)c1cnccn1)c1c(N)n(Cc2ccccc2)c(=O)[nH]c1=O	0.51	1.2
Cc1cc(NC(=O)c2ccc(Cl)cc2)c(C)cc1O	2.3	-0.26
CCCCCNC(=O)CCn1c(=O)oc2ccccc21	1.3	0.62

Part of the list above in order of heavy-atom count, high to low.
SMILES	KCNQ2 enhance	KCNQ2 enhance baseline
Cc1cccc(NC(=O)CSCC(=O)N(CCC(C)C)c2c(N)n(Cc3ccccc3)c(=O)[nH]c2=O)c1	0.24	0
CCn1cc(C(=O)NCc2ccccc2OC)c(=O)c2cc(S(=O)(=O)N(C)C)ccc21	1	0.22
CC(NS(=O)(=O)c1ccccc1)C1CC2CCC1C2 (stereo not given)	3.1	0.07

An excerpt from above in order of their number in KCNQ2 enhance baseline, low to high.
SMILES	KCNQ2 enhance	KCNQ2 enhance baseline
CCOC(=O)C1=C(COC(=O)CNC(=O)c2ccc(C(C)(C)C)cc2)NC(=O)NC1C (stereo not given)	2.6	-1.1
CC(C)(C)c1ccc(C(=O)Nc2cccc(C(=O)N3CCOCC3)c2)cc1	1	0.78
CN(C(=O)c1cnccn1)c1c(N)n(Cc2ccccc2)c(=O)[nH]c1=O	0.51	1.2

(next part)
SMILES	KCNQ2 enhance	KCNQ2 enhance baseline
CCOC(=O)c1ccc(S(=O)(=O)Nc2ccccc2-c2nnn(CC)n2)cc1	0.03	-0.66
COc1ccc(OC)c(NC(=S)NC(=O)c2ccc(Br)o2)c1	2.6	1.4
Cc1nnc(SCCn2c(N3CCN(C)CC3)nc3c2c(=O)n(C)c(=O)n3C)s1	0.47	-0.81
CC(C)NC(=O)Cn1cc(S(=O)(=O)N2CCCC2)c(S(=O)(=O)N2CCCC2)c1	0.34	0.04
CC(C)n1nnnc1SCC(=O)N1CCN(C(=O)c2ccco2)CC1	1.1	1.6
CC1CCN(C(=O)CSC2=NS(=O)(=O)c3cc(F)ccc3N2)CC1	0.85	-1.7
CCOC(=O)Cn1c(=NC(=O)c2cc(-c3cccs3)nc3ccccc23)sc2cc(S(N)(=O)=O)ccc21	0.94	0.72
O=C1CC(NS(=O)(=O)c2ccc([N+](=O)[O-])cc2)CN1c1cccc(F)c1 (stereo not given)	0.98	-0.47
Cc1nnc(SCC(=O)NCC2CCCCC2)n(N)c1=O	1.6	1.1
NC(N)=NS(=O)(=O)c1ccc(N)cc1	0.07	0.45
Cc1cc(NC(=O)COC(=O)c2ccco2)no1	0.44	-0.09
Cc1ccc(OCCC(=O)OCC(=O)NC(=O)NCc2ccccc2)cc1	0.75	0.01

Rewritten with each value named: 3 of the compounds above
SMILES: Cc1ccc(OCCC(=O)OCC(=O)NC(=O)NCc2ccccc2)cc1
  KCNQ2 enhance: 0.75	KCNQ2 enhance baseline: 0.01

SMILES: COc1ccc(OC)c(NC(=S)NC(=O)c2ccc(Br)o2)c1
  KCNQ2 enhance: 2.6	KCNQ2 enhance baseline: 1.4

SMILES: Cc1nnc(SCC(=O)NCC2CCCCC2)n(N)c1=O
  KCNQ2 enhance: 1.6	KCNQ2 enhance baseline: 1.1

Further structures:
SMILES	KCNQ2 enhance	KCNQ2 enhance baseline
COc1ccccc1OCc1ccc(C(=O)NCC(C)C)o1	0.28	1.4
CCOc1c(Cl)cc(/C=N/O)cc1OC	0.01	-1.2
O=C(O)CCCC(=O)NNC(=O)c1cccc(Br)c1	0.69	3
CCOC(=O)CCNC(=O)c1ccc2nc(C3CCCCC3)oc2c1	2	-0.01
Cc1ccc(N/N=C(\C#N)C(=N)N2CCCCCC2)cc1	1.4	-0.86
COc1cc(/C=N/NC(=O)CC(=O)NC2CCCCC2)ccc1O	0.7	0.12
CC1CCN(S(=O)(=O)c2ccc(NC(=O)c3ccco3)cc2)CC1	0.47	-0.17
COc1cccc(CN2CCN(Cc3c(C)nn(C(C)C)c3C)CC2CCO)c1 (stereo not given)	0.04	2.7
CCOC(=O)/C(C#N)=C/c1cc2ccccc2nc1Cl	0.51	-0.56
CC1CCc2c(sc(NC(=O)COC(=O)c3ccccc3NCc3ccco3)c2C#N)C1 (stereo not given)	0.07	-0.12
O=C(CCC1CCCC1)N1CCN(C2CCCC2)CC1	0.55	-3
CCCCC(=O)Nc1c2c(nn1-c1ccc(C)cc1)CS(=O)(=O)C2	0.04	-0.01
CC(=O)N(CN1C(=O)CCC1=O)c1cccc(Cl)c1	0.03	-0.24
CN(C)CCOC(=O)c1ccc2[nH]c3c(c2c1)CSCC3	1.2	-1
CCN(CC)CCCn1c2c(c(SCC(=O)Nc3ccc(F)c(F)c3)nc1=O)CCC2	1.6	1.3
CN1CCN(Cc2ccc(OCc3ccccc3)cc2)CC1	2.2	0.94
CC1CC(C)(C)NC(=S)N1CC(=O)NCc1ccc(F)cc1 (stereo not given)	1.1	0.94
COc1cc2[nH]c(=S)n(CCCN3CCOCC3)c(=O)c2cc1OC	0.1	-1.8
Cc1ccc(N2NC(=O)/C(=C/C=C/c3ccco3)C2=O)cc1C	0.2	-0.96
O=c1sc(Nc2ccccc2)nc2ccccc12	0.83	-1.6
Cc1ccc(CCCOC(=O)C[N+]2(C)CCCCC2)cc1	0.01	-1.9
Cc1cc(C)c(NC(=O)COC(=O)C2CCC2)c(Cl)c1	2.8	0.46
CCN1CCCC1CN(Cc1cc2ccc(C)cc2[nH]c1=O)C(=S)Nc1ccc(OC)cc1 (stereo not given)	0.05	-0.36
O=C(O)CCS(=O)(=O)c1ccccc1Cl	0.48	0.07
CC(=O)C[C@H]1c2ccccc2S(=O)(=O)N1C1CCCC1	0.31	-0.09
CCOc1ncccc1C(=O)NNC(=O)c1ccccc1-n1cccc1	0.2	-0.67
COc1ccc(C)cc1C(=O)CCC(=O)NCCc1ccc(S(N)(=O)=O)cc1	0.74	0.14
COc1ccc(N2CCN(C(=O)COc3ccc(Cl)cc3Cl)CC2)cc1	0.1	-0.72
Cc1cccc(CCNS(=O)(=O)c2ccc3c(c2)n(C)c(=O)c(=O)n3C)c1	0.17	-0.18
CCCC(NS(=O)(=O)c1ccc(C)cc1)C(=O)O (stereo not given)	0.31	1.8
COc1cc(C(=O)N2CCN(C(=O)COc3ccc4ccccc4c3)CC2)cc(OC)c1OC	0.08	-0.21
CN(CC(=O)Nc1ccc(Cl)cc1)C(=O)c1ccc(-n2cncn2)c([N+](=O)[O-])c1	0.2	-1.8
COc1cc(/C=C/C(=O)O)cc(S(=O)(=O)Nc2cccc(SC)c2)c1OC	0.6	-1.9
O=C(O)c1ccc(OCc2cn3ccccc3n2)cc1	0.19	-0.21
Cc1cc(S(=O)(=O)NCC(C)C)ccc1OCC(=O)NCc1ccco1	1.4	0.72
Cc1cc(C)n(Cc2ccc(C(=O)NN)o2)n1	1	1
CCC1SC2=NCCN2C1(O)c1ccc(Cl)cc1 (stereo not given)	0.02	2.2
CNc1nc(OCC#N)nc(N2CCCCC2)n1	0.07	-1.3
O=C(O)c1ccc(NC(=O)C2C3CCC(C3)C2C(=O)O)cc1 (stereo not given)	0.84	-1.2
C[C@]1(C(=O)NCCN2CCOCC2)C=C[C@@H](Cc2ccccc2)N1C(=O)c1ccccc1	0.36	-0.35
COc1ccc(OCC(O)CNC(=O)c2ccc(C)cc2)cc1 (stereo not given)	0.62	1.1
COc1ccc(C(=O)NC(NC(=O)c2ccc(OC)c(OC)c2)c2ccccc2F)cc1OC	1.4	-0.65
COC(=O)c1cc(C(=O)Nc2nnc(CC(C)C)s2)cc([N+](=O)[O-])c1	0.02	-1.7
CC(C)OP(=O)(OC(C)C)C(O)c1ccc2c(c1)OCO2 (stereo not given)	0.39	2.3
COc1cccc(NC(=O)c2cnn(-c3ccccc3)c2C)c1	0.36	0.14
COC(=O)c1ccc(C(=S)NCC2(N(C)C)CCCCC2)cc1	0.13	-0.02
O=C(NCCc1ccc2c(c1)OCCO2)c1ccccc1F	0.4	0.04
O=C1OCc2cc(NC(=O)C3CCCO3)ccc21 (stereo not given)	1.7	1.1
CCOC(=O)c1cccc(NC(=O)CNC(=O)C2CCCCC2)c1	1.6	0.83
CCC1C(=O)Nc2ccccc2N1C(=O)c1ccc(Cl)nc1 (stereo not given)	0.62	0.41
O=C(O)CCc1nc2cc(Cl)ccc2n(Cc2ccccc2)c1=O	0.42	-1.2
Fc1ccc(NC(=S)Nc2nccs2)cc1	7.3*	-1.6*
O=[N+]([O-])c1ccc(O)c(CSc2nnnn2-c2ccccc2)c1	0.14	1.9
CN(CC(=O)Nc1ccc(Cl)cc1)C(=O)CCC1CCCC1	0.63	1
COc1cccc(/C=C/c2[nH]c(=O)[nH]c(=O)c2[N+](=O)[O-])c1O	2.8	0.07
O=C(Nc1c(C(=O)N2CCCCC2)cnn1-c1ccccc1)c1ccccc1	0.96	0.21
CC(C)(C)OC(=O)N1Cc2ccccc2C[C@H]1C(=O)NCC(=O)NCC1CCCO1 (stereo not given in full)	0.91	0.96
COC/C=C/C1=CC2=CC(=O)C(C)(OC(=O)c3cnc4ccccc4n3)C(=O)C2=CN1c1cccc(C#N)c1 (stereo not given)	0.38	0.64
COc1ccccc1NC(=O)COc1ccc(Br)cc1CNCCCN1CCOCC1	1.5	-2.1
CCOC(=O)c1sc(=NC(=O)c2ccc(F)cc2)n(C)c1C	0.34	0.12
Further entries.
SMILES	KCNQ2 enhance	KCNQ2 enhance baseline
N#Cc1nc(-c2ccccc2)oc1NCc1ccco1	1.7	-1.8
CC(C)c1ccc(/C=C/C(=O)NC2=NCCS2)cc1	0.71	-0.64
CCOc1ccc(C(=O)N2CCCC2)cc1	0.53	1.1
Cc1cc(C)c(C)c(S(=O)(=O)Nc2cccc(-n3cnnn3)c2)c1C	0.68	1.2
CC(=O)Nc1cc(C(=O)N2CCCC2)ccc1S(=O)(=O)c1ccc(Cl)cc1	0.34	-0.36
Cc1cc(C(=O)O)cc(S(=O)(=O)N2CCOCC2)c1C	1.3	-1
O=C(NCc1ccco1)/C(=C\c1ccc(F)cc1)NC(=O)c1ccco1	0.1	-1.3
CCOc1ccc(/C=C2\N=C(c3cccs3)OC2=O)cc1OC	0.41	1.3
O=C(NCCSc1c[nH]c2ccccc12)C1CC1	0.7	-0.02
COc1ccccc1N1CCN(C(=O)c2cc3n(n2)C(C(F)(F)F)CC(c2ccco2)N3)CC1 (stereo not given)	0.11	0.19
CC(=O)Nc1nc(SCc2ccc(Cl)cc2Cl)n[nH]1	0.06	-2.7
Oc1cccc(/C=N/Nc2cc(N3CCCC3)nc(N3CCCC3)n2)c1	0.61	1.8
COc1ccc(C(=O)NCCCN2CCCC2=O)cc1	1.1	1.8
O=C(CSc1nnc(-c2ccncc2)o1)Oc1ccccc1	0.16	0.51
O=C(Nc1cccc(NC(=O)c2ccco2)c1)c1cccc(Br)c1	1.4	0.19
CCOc1ccc2c(c1)c(C(C)=O)c(C)n2-c1ccccc1	0.26	0.07
CC(=O)OCc1nc2sc3c(c2c(=O)[nH]1)CCCC3	1	-0.81
CC(=O)N1N=C(c2ccc(Br)cc2)CC1c1cn(C)c2ccccc12 (stereo not given)	1	-1.2
CC(=O)Nc1ccc(NC(=O)CS(=O)(=O)c2cn(CC(=O)N3CCC(C)CC3)c3ccccc23)cc1	1.2	-2.1
CCc1c(C)sc(NC(=O)Cn2nc(C)c([N+](=O)[O-])c2C)c1C(N)=O	1.1	-1.4
C=CCn1c(SCc2cc(=O)n3cc(C)ccc3n2)nnc1-c1cccc(C)c1	0.89	-0.82
O=C(C1CCCN(S(=O)(=O)c2ccccc2)C1)N1CCCCC1 (stereo not given)	0.79	0.73
CN(CCO)c1cc(N2CCN(C(=O)c3ccco3)CC2)c2nonc2c1[N+](=O)[O-]	0.02	-1.1
COc1ccc(OCc2cc(C(=O)N(C)Cc3nccn3C)no2)c2ccccc12	0.17	-0.19
CCc1nnc(NC(=O)CSc2nnc(COc3cccc(C)c3)o2)s1	1.9	0.01
